From PubChem
Sa growth 42C: S. aureus growth inhibition | S. aureus RN4220 growth, OD600, 20 h, 42 °C; active compounds read low | relative growth, % (concentration not given with the values) | 0.53% of 170,000 active | AID 720641;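 active = growth at 42 °C up to 50% and 20 or more points under that at 30 °C, or under 10% at both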;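 also: 300 nL library stock went into each well; scaled to the means of positive and negative controls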
HCMV NEC inh: disrupts HCMV UL50-UL53 complex binding; HTRF UL50-UL53 interaction, normalized percent inhibition; inhibition, % (concentration not given with the values); 0.15% of 190,000 active;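 active = both replicates at 50% or more, plus weaker picks with an unusually low signal ratio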;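 also: stock transfer was 100 nL into about 20 µL; 0% = negative control wells and 100% = wells with untagged competitor protein; inactives centre near -12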
GIV Gai3 FP: GIV-Galpha-i interaction inhibition. 0.42% of 210,000 active. Galpha-i3/FITC-GIV peptide fluorescence polarization, 90 min; active compounds read low; scaled: aluminum fluoride 0%, vehicle 100%. percent of control (FP), % (test concentration not listed). P08753. AID 1224905;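 active = replicate mean at 85% of control or lower, very high polarization wells dropped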;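 also: lower values mean more displacement of the GIV peptide from Galpha-i3; wells of about 15 µL received 100 nL stock; the first replicate is given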
Target sequence (P08753 whole entry, looked up): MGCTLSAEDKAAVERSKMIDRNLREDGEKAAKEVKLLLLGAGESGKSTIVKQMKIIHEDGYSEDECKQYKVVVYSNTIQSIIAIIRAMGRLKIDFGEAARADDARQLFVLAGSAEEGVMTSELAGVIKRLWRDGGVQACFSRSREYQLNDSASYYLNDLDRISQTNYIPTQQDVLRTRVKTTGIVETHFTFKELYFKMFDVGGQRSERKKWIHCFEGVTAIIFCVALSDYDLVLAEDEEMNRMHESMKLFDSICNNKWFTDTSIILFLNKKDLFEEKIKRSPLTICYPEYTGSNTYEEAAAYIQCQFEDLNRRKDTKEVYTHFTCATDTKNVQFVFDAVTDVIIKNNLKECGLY
Sa growth 42C second temp: further read-out of Sa growth 42C, marked with its call; relative growth, %; measured here: growth at 30 °C;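 optical density after 20 h as mean of two plates; 100% = untreated growth and lower means inhibition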
An asterisk follows results filed as active; nt = no result given; & = joins results of further samples.

# | Compound | HCMV NEC inh | Sa growth 42C
1 | COc1ccc(CC(=O)NCc2ccco2)cc1OC | -16 | 104
2 | CN(C)CCNC(=O)c1cn(-c2ccccc2)nc1-c1cccnc1 | 0 | 85
3 | COc1ccc(N=C2N=C(N)c3ccccc32)cc1 | -74 | 87
4 | CCC(CC)C(=O)Nc1ccc2nc(SCC(=O)N3CCOCC3)sc2c1 | -20 | 110
5 | Cc1ccc(Sc2c(C)nn(C(=O)COc3ccccc3Br)c2C)cc1 | -23 | 98
6 | CC(=O)Nc1ccc2c(c1)nc1n2CCN(Cc2ccccc2)C1 | -2&-22 | 87
7 | COc1ccc(C2C(C#N)=C(N)OC3=C2C(=O)CC(C)(C)C3)cc1COc1cccc(Cl)c1 (stereo unspecified) | -10 | nt
8 | C=CCn1c2ccccc2c2nnc(SCCC)nc21 | -59 | 79
9 | CCN(CC)CC(=O)Nc1scc2c1c(=O)oc1ccccc12 | -20 | 99
10 | COc1cc2c(cc1NC(=O)CCC1CCCCC1)oc1ccccc12 | nt | 106
11 | COc1ccc(CCN(C)C(=O)COc2ncnc3ccccc23)cc1OC | 2 | 81
12 | CC(=O)Nc1c(I)c(NC(C)=O)c(I)c(C(=O)O)c1I | -34 | 94

# | Sa growth 42C second temp | GIV Gai3 FP
1 | 89 | 104
2 | 97 | nt
3 | 88 | nt
4 | 85 | 106
5 | 98 | 100
6 | 77 | 101&99
7 | nt | 101
8 | 74 | 105
9 | 99 | 96
10 | 83 | 100
11 | 90 | nt
12 | 93 | nt

Next part
# | Compound | HCMV NEC inh | Sa growth 42C
13 | CC(C)C(NC(=O)c1ccc(Cl)cc1)C(=O)NCC1CCCO1 (stereo unspecified) | -18 | 102
14 | CCN(C(=O)Cn1c(-c2ccco2)nc2ccccc21)c1ccccc1 | -4 | 97
15 | N#Cc1c(Cl)cccc1NC1CCCCNC1=O (stereo unspecified) | -9 | 88
16 | Cn1c(=O)c2cnc(-c3ccccc3)nc2n(C)c1=O | nt | 119
17 | CCOc1ccc(C(=O)c2cn(CC(=O)Nc3ccc(OC)cc3)c3cc4c(cc3c2=O)OCCO4)cc1 | -32 | 105
18 | CCOc1ccc2nc(NC(=O)Nc3ccc(F)cc3)sc2c1 | nt | 93
19 | CN(C)/C=C/C(=O)c1csc(-c2ccccc2)n1 | -93 | 93
20 | CCOC(=O)Nc1cccc(Nc2ccccc2)c1 | -1 | 91
21 | OC(CNCC1CCCO1)Cn1c2ccccc2c2ccccc21 (stereo unspecified) | -51 | 130
22 | COc1ccc(OC)c(C(O)c2nc3ccccc3n2C(C)C)c1 (stereo unspecified) | -25 | 97
23 | COc1ccc(-c2cc(C(F)F)n3ncc(C(=O)N4C(C)CCCC4C)c3n2)cc1 (stereo unspecified) | -10 | 100
24 | CC1SC(=N)N(c2ncc(Cc3ccccc3Cl)s2)C1=O (stereo unspecified) | nt | -1.0*

# | Sa growth 42C second temp | GIV Gai3 FP
13 | 96 | nt
14 | 99 | nt
15 | 87 | 100
16 | 89 | 103
17 | 83 | 103
18 | 90 | 101
19 | 93 | 101
20 | 75 | 105
21 | 106 | 100
22 | 86 | 109
23 | 96 | 106
24 | -0.5* | 101

Later entries:
# | Compound | HCMV NEC inh | Sa growth 42C
25 | Cc1nn(C(=O)Nc2ccccc2)c(C)c1Oc1ccccc1 | 2 | 125
26 | O=C(O)CCn1[nH]c(=O)c2ccccc2c1=O | 8 | 92
27 | COc1cc(C)nc(N(Cc2ccccc2)S(=O)(=O)c2ccccc2)n1 | 15 | nt
28 | O=C1CC(N(O)c2ccccc2)C(=O)N1Cc1ccccc1 (stereo unspecified) | 3 | 86
29 | Cc1ccc(S(=O)(=O)NCC(c2ccc(N(C)C)cc2)N2CCc3ccccc32)cc1 (stereo unspecified) | nt | 101
30 | CC(=O)Nc1cccc(Cn2cccn2)c1 | -10 | 98
31 | CC(C)c1ccc(S(=O)(=O)N2CCN(Cc3cccc(F)c3)CC2)cc1 | nt | 116
32 | COC(=O)c1ccc(COc2coc(CN3c4ccccc4CC3C)cc2=O)cc1 (stereo unspecified) | -26 | 85
33 | Cc1ccc(C(=O)N2CC(=O)NC(=O)C2)cc1 | -29 | 110
34 | O=C(O)CCc1ccc(-c2cccs2)n1CC(=O)Nc1ccccc1 | -25 | 109
35 | CC(=O)N1CN(Cc2ccccc2)Cc2c1sc1c2CCCC1 | nt | 107
36 | CC(C)C(NC(=O)C1CCCCC1)C(=O)NCc1ccco1 (stereo unspecified) | -30 | 93

# | Sa growth 42C second temp | GIV Gai3 FP
25 | 98 | 97
26 | 94 | nt
27 | nt | 99
28 | 61 | 106
29 | 89 | 101
30 | 97 | 105
31 | 99 | 108
32 | 83 | 106
33 | 103 | 103
34 | 86 | 105
35 | 91 | 103
36 | 90 | 97

(more compounds)
# | Compound | HCMV NEC inh | Sa growth 42C
37 | COc1ccc(NC(=O)CSc2nc3ccccc3nc2N2CCOCC2)c(OC)c1 | -61 | 92
38 | CCOC(=O)C1=C(C)NC(SCC(=O)O)=C(C#N)C1c1ccco1 (stereo unspecified) | -38 | 93
39 | CCc1cc2c(=O)n(NC(=S)NC)cnc2s1 | -13 | 81
40 | COc1cccc(-c2cn3c(n2)sc2cc(C(=O)NCCc4ccccc4)ccc23)c1 | nt | 134
41 | Cc1nc(-c2ccc(Cl)cc2)sc1CCNC(=O)C(=O)Nc1ccc2c(c1)OCO2 | nt | 89
42 | O=C1C(c2c(O)n(-c3cc(Cl)cc(Cl)c3)[nH]c2=O)=Nc2ccccc21 | nt | 89
43 | O=S(=O)(c1cccc2cccnc12)N(CCc1ccccc1)Cc1ccccc1 | nt | 107
44 | CCCN1CCN(C(=O)CCn2cnc3oc(C)c(C)c3c2=O)CC1 | -13 | nt
45 | N#Cc1c(-c2cccs2)cc(-c2ccccc2)nc1OCC(=O)c1ccccc1 | -13 | 99
46 | COC(=O)c1c(C)[nH]c(C(=O)COC(=O)Cn2cc(C(F)(F)F)ccc2=O)c1C | -38 | 77
47 | O=C(CSC1=NCCN1)N1CCc2ccccc21 | -28 | 91
48 | NC(=O)c1ncoc1-c1ccc(Cl)cc1Cl | 2 | 100

# | Sa growth 42C second temp | GIV Gai3 FP
37 | 86 | 105
38 | 95 | nt
39 | 84 | nt
40 | 61 | 109
41 | 89 | 104
42 | 94 | 109
43 | 75 | 104
44 | nt | 103
45 | 89 | 111
46 | 84 | nt
47 | 86 | nt
48 | 100 | 107

Going on with the list:
# | Compound | HCMV NEC inh | Sa growth 42C
49 | CC1Cc2cc(S(=O)(=O)NCCN3CCN(Cc4ccccc4)CC3)ccc2N1C(=O)C1CC1 (stereo unspecified) | -33 | 84
50 | COc1ccc(-c2noc(CNC3CCCCC3)n2)cc1 | -23 | 93
51 | CN1CCN(C(=O)Cn2ncc3c4ccccc4n(C)c3c2=O)CC1 | -4 | 91
52 | Cc1cn2c(=O)cc(COc3cccc(NC(=O)c4ccc(C(C)(C)C)cc4)c3)nc2s1 | -18 | 101
53 | CCC(C)(C)NC(=O)Cn1nnc(-c2ccc(OC)cc2)n1 | -28 | 106
54 | CC(C)CC(NC(=O)C1CCCCC1)C(=O)NCc1ccccn1 (stereo unspecified) | nt | 111
55 | O=C(CCN1C(=O)c2ccccc2C1=O)Nc1ccc(S(=O)(=O)Nc2nccs2)cc1 | nt | 99
56 | CCOC(=O)c1cc(-c2ccccc2)nnc1Cl | -8 | nt
57 | Cc1cc(=O)n2nc(-c3ccc(Cl)cc3)nc2n1CC(=O)NC(C)C | -23 | nt
58 | Cc1cc(C)c(C)c(S(=O)(=O)N2CCN(C(=O)c3ccco3)CC2)c1C | 1 | 94
59 | COc1ccc(NC(=O)CNc2cccc3c2CCCC3)cc1 | -30 | 102
60 | O=C(O)C1CCC(c2ccc(-c3ccccc3)cc2)CC1 (stereo unspecified) | nt | 70

# | Sa growth 42C second temp | GIV Gai3 FP
49 | 79 | 100
50 | 88 | 100
51 | 100 | 102
52 | 91 | 100
53 | 80 | 102
54 | 98 | 99
55 | 81 | 103
56 | nt | 107
57 | nt | 105
58 | 95 | 116
59 | 88 | nt
60 | 60 | 103

The list continues:
# | Compound | HCMV NEC inh | Sa growth 42C
61 | CCOC(=O)c1c(C)oc2cc(Br)c(OCc3ccccc3Cl)cc12 | -27 | nt
62 | CN(C)c1ccc(/C=C2/C(=O)ON=C2c2ccccc2)cc1 | 28 | 100
63 | CC(=O)N1CCN(c2nc(N)c3c(N)nc4c(c3c2C#N)CC(=O)N4C)CC1 | -39 | 72
64 | CC1CN(C(=O)c2cc3c(s2)CCC3)CC(C)O1 (stereo unspecified) | -5 | 119
65 | CCc1cccc(C)c1NC(=O)CN1CCN(Cc2ccccc2Cl)S1(=O)=O | nt | 110
66 | Nc1[nH]c(=O)[nH]c(=O)c1N=Nc1ccccc1Cl | -87 | 92
67 | N#CC1=C(N)n2c(s/c(=C\c3ccco3)c2=O)=C(C#N)C1c1ccco1 (stereo unspecified) | -23 | 87
68 | Cc1ccccc1-n1c(C)[n+](C)c2ccccc21 | 25 | 97
69 | CC(C)Cn1c(=O)c2sccc2n2c(CCC(=O)N(C)Cc3ccco3)nnc12 | 12 | nt
70 | COC(=O)/C(=C/C=C/c1ccccc1)NC(=O)c1ccccc1 | nt | 92
71 | COc1ccc(Br)cc1CNC(C)(C)CO | 1 | 96
72 | COc1cccc(-c2noc(C3CCCN(S(=O)(=O)c4ccc(Br)cc4)C3)n2)c1 (stereo unspecified) | -26 | nt

# | Sa growth 42C second temp | GIV Gai3 FP
61 | nt | 100
62 | 93 | 121
63 | 91 | nt
64 | 91 | nt
65 | 103 | 105
66 | 65 | 102
67 | 78 | nt
68 | 100 | nt
69 | nt | 97
70 | 85 | 104
71 | 95 | 100
72 | nt | 99

The list continues.
# | Compound | HCMV NEC inh | Sa growth 42C
73 | CCc1ccc(NC(=O)C2CCCN(S(=O)(=O)N3CCOCC3)C2)cc1 (stereo unspecified) | nt | 116
74 | Cc1ccc(-c2cc(N3CCOCC3)nc(SCc3ccc(Cl)cc3)n2)cc1 | -2 | nt
75 | Cc1ccc(NC(=O)CC2Nc3cccc4cccc(c34)NC2=O)cc1 (stereo unspecified) | -17 | 97
76 | Cc1ccc2cc3cc(C(=O)NCCCN4CCc5ccccc5C4)oc3nc2c1 | -6 | 88
77 | CCOc1ccc(/C=C2/SC(=Nc3ccccc3)NC2=O)c(OCC)c1 | 0 | nt
78 | CCOC(=O)C1C(=O)C=C(Nc2ccc(C(F)(F)F)cc2)CC1c1ccccc1 (stereo unspecified) | -10 | 88
79 | Cc1ccc(C(=O)NCc2ccc3[nH]c4c(c3c2)CCCC4)cc1C | nt | 94
80 | O=C(CSc1nnc(COc2ccccc2)o1)Nc1ccccc1 | nt | 70
81 | O=C(Nc1ccc(Cl)c(Cl)c1)OCc1cccnc1 | -23 | 8.0*
82 | CC(=O)c1cccc(Nc2ncnc3c2cnn3C)c1 | nt | 97
83 | CC(C)CCNC(=O)c1cccc(Nc2nc3ccccc3n3nnnc23)c1 | -8 | 104
84 | COc1cc(OC)nc(/N=C/N(C)C)n1 | 20 | 82

# | Sa growth 42C second temp | GIV Gai3 FP
73 | 91 | 104
74 | nt | 106
75 | 89 | 105
76 | 91 | 101
77 | nt | 101
78 | 78 | nt
79 | 77 | 100
80 | 82 | 109
81 | 6.6* | nt
82 | 90 | 104
83 | 94 | 104
84 | 93 | 107

Other entries follow:
# | Compound | HCMV NEC inh | Sa growth 42C
85 | COC(=O)c1ccccc1NC(=O)C1=Cc2sc3c(c2CS1)CCCC3 | 13 | nt
86 | CC(C)NC(=O)N1Cc2c(sc3c2CCCC3)-n2cccc2C1C (stereo unspecified) | -30 | nt
87 | COc1ccccc1-c1nnc2sc(-c3ccc4ccccc4n3)nn12 | -21 | nt
88 | CCC(C)NC(=O)c1cc(C(C)C)on1 (stereo unspecified) | -5 | 108
89 | O=C(O)CSCC(=O)Nc1ccc(-c2nc3ccccc3s2)cc1 | -38 | 103
90 | Cc1nc(-c2cc(C#N)c(NCc3ccccc3)nc2C)cs1 | -7 | 103
91 | Cc1ccc(CSc2nc3ccc(C(=O)NCCN4CCOCC4)cc3n2C)cc1 | 9 | 115
92 | CCOc1cc(N2CCOCC2)c(OCC)cc1NC(C)=O | -38 | 105
93 | O=C1Nc2ccccc2/C1=N\N=C1/SCC(=O)N1c1ccc(O)cc1 | -47 | 126
94 | COC(=O)c1c(C)sc(-c2c(-c3ccc(F)cc3)[nH]c3[nH]c(=O)[nH]c(=O)c23)c1O | -15 | 92
95 | O=c1[nH]c2ccccc2n1CCOc1ccccc1 | -4 | 88
96 | CCOCCCn1c(SCC(=O)Nc2ccccc2CC)nc2ccccc2c1=O | nt | 82

# | Sa growth 42C second temp | GIV Gai3 FP
85 | nt | 104
86 | nt | 106
87 | nt | 110
88 | 91 | 101
89 | 56 | 109
90 | 86 | 101
91 | 97 | 104
92 | 89 | 100
93 | 91 | 99
94 | 95 | 260
95 | 80 | nt
96 | 97 | 99

Continued.
# | Compound | HCMV NEC inh | Sa growth 42C
97 | COc1cc(/C=C/C(=O)O)ccc1Cc1ccc(C(=O)O)o1 | -15 | 103
98 | CCOC(=O)c1cnc(-c2cccs2)[nH]c1=O | 1 | 99
99 | Cc1c(NC(=O)c2cc(=O)c3ccccc3o2)c(=O)n(-c2ccccc2)n1C | -38 | 98
100 | CNC(=O)CSc1nnc(-c2ccccc2F)n1C1CCCCC1 | 11 | 101
101 | Fc1ccc(NCc2nc3ccccc3n2CCOc2ccccc2Cl)cc1 | 16 | 88
102 | O=C(O)CCN1C(=O)c2ccccc2Sc2ncccc21 | -27 | 99

# | Sa growth 42C second temp | GIV Gai3 FP
97 | 91 | nt
98 | 99 | 107
99 | 84 | 104
100 | 99 | nt
101 | 81 | 107
102 | 91 | 98
